# MLL AF4-AF9 inh: blocks AF4 peptide binding to human AF9; AlphaScreen, biotin-AF4 peptide binding to FLAG-AF9; inhibition, % at 10 µM; 350,000 tested, 0.47% active; AID 651704;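 active means every replicate reaching a set inhibition limit, whatever the replicate mean, cut at about 25% in these data; inconclusive means mean inhibition reaches that limit but some replicates miss it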;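 further: 0% = plate neutral control median and 100% = total signal loss; the record names both 10 and 1 µM as test concentration; the first replicate is given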
# Target sequence (P42568 whole entry, looked up): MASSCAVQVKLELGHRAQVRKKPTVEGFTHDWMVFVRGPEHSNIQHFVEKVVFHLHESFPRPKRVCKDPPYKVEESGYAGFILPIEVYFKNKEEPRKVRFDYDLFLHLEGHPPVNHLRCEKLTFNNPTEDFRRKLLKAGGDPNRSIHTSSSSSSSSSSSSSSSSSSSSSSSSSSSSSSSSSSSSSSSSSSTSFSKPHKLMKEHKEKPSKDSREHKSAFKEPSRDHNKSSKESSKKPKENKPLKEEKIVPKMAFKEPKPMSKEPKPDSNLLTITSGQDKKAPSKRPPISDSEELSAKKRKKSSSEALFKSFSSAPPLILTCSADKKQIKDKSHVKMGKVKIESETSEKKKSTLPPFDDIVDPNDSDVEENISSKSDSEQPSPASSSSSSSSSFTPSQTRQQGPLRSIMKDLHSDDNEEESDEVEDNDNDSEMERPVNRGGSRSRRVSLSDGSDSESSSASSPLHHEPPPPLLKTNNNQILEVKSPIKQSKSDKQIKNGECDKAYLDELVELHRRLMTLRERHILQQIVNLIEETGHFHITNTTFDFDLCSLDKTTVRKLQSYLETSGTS
# RanGTP-Impb inh: inhibitors of RanGTP-importin-beta interaction, primary screen, biochemical, FRET, CFP-Ran, YFP-importin-beta, homogeneous; cell-free CFP-Ran/YFP-importin-beta FRET ratio; inhibition, % (no concentration beside the values); 300,000 tested, 1.1% active; AID 2216;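 active means most replicates above 15%; inconclusive means exactly half above 15%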;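 further: 0% = DMSO wells and 100% = Ran loaded with GDP instead of GTP; wells of about 40 µL received 100 nL stock; the first replicate is given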
# FGF22 binding: FGF22 (human) thermal shift binding; AID 651658; 340,000 tested, 1.5% active; Q9HCT0; calls only at 9.99 µM; recombinant FGF22 thermal shift, SYPRO orange fluorescence; percent of sucrose octasulfate shift, DMSO zero;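 active means melting point raised past a set limit in the mean and every replicate; inconclusive means no clear call; three in four hits are not shown here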
# Target sequence (Q9HCT0 whole entry, looked up): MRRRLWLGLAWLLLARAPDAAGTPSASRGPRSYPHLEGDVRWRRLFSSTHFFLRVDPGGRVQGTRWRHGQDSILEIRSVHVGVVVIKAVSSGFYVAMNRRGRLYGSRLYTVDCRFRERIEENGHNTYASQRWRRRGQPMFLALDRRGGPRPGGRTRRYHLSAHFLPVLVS
# UCH37 DUB inh: human UCH37 deubiquitinating enzyme inhibition; Q9Y5K5; 330,000 tested, 0.33% active; inhibition, % (concentration not given with the values); purified proteasome/UCH37, Ub-AMC cleavage fluorescence; AID 588478;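 active means mean of two replicates above 20%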;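 further: 0% = compound-free wells with enzyme and 100% = wells lacking proteasome; stock transfer was 100 nL into about 20 µL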
# Target sequence (Q9Y5K5 whole entry, looked up): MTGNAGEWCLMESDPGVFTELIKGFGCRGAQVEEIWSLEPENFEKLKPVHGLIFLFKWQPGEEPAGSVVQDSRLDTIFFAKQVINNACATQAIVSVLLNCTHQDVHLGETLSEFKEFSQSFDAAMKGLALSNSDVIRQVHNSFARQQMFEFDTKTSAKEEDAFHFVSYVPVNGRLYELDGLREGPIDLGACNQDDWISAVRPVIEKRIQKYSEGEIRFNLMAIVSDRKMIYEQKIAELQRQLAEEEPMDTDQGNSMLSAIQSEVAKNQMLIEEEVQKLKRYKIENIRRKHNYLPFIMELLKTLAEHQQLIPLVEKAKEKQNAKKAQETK
#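 Material: human UCH37 enzyme supplied as purified proteasome complex / Amount: 0.15 nM proteasome as dispensed / Buffer or medium: pH 7.4 Tris-HCl (50 mM) with ovalbumin, ATP-MgCl2, DTT / Times: preincubation 30 min, reaction 25 min, room temperature / Technique: AMC fluorescence from Ub-AMC cleavage, excitation 355 nm, emission 460 nm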
# E coli growth: inhibitors of Escherichia coli growth. OD600, 23 h; active compounds read low. 330,000 tested, 0.21% active. OD600 absorbance (concentration not given with the values);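 active means OD600 absorbance below the run mean of sample wells minus 3.6 SD, in any replicate, cut at about 0.56 in these data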;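 further: stock transfer was 300 nL into about 60 µL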
# HNF4A DNA FP: change in binding of human HNF4 alpha to DNA. activity change, % at 10 µM. HNF4a-FITC DNA binding, fluorescence polarization, 1 h. 360,000 tested, 0.3% active. AID 1224865; in the data active means activity change above about 30%, passing the limit was not always enough;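 further: controls were the assay level and a saturating level of protein; the project sought stronger binding though the title names inhibitors; some compounds called inactive have numbers as strong as hits; positive values seem to mean higher polarization but the record does not say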
# Vif A3G: inhibitors of Vif binding to APOBEC3G peptide, primary screen, biochemical, TR-FRET, GST-Vif 1-94, biotin-A3G peptide, dose response retest (AID 1117319). one-dose inhibition, %; IC50 in µM for titrated hits. TR-FRET GST-Vif / biotin-A3G peptide binding; higher % means a stronger effect; test concentration not given here; strong numbers were not always called active. 260,000 tested, 0.57% active;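 active means above the screen mean plus three standard deviations and confirmed in dose response; inconclusive means results disagree or hit not tested in dose response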;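 further: Vif residues 1-94 fused to GST binding biotinylated APOBEC3G peptide 110-148; 0% = full assay without inhibitor and 100% = GST in place of GST-Vif; retest series ran down from 100 µM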
# * = called active by the depositor; i = inactive; u = inconclusive; x = no result given; & = joins results of further samples. An excerpt; rates above refer to the full screens.
Vif A3G	E coli growth	HNF4A DNA FP	RanGTP-Impb inh	UCH37 DUB inh	MLL AF4-AF9 inh	FGF22 binding	Compound
x	x	1.4	0.2	2.7	-3.7	i	CCN1C(Nc2ccccc2)=NC[C@@H]1C
-4%	0.7	1.7	-0.3	1.4	x	x	COc1ccc(C(=O)NN2CCCCC2)cc1OC
x	x	-7.0	x	x	-0.4	i	CCNC(=O)C1(C)CCN(C(=O)c2cccc3ccccc23)C1 (stereo not drawn)
4%	x	2.9	2.2	x	x	x	O=[N+]([O-])c1cccc(/C=N/Nc2cc(Cl)nc(-c3ccccc3)n2)c1
3%	0.69	-4.2	x	1.6	-0.6	i	Cc1ccc(C(=O)OCc2cc(=O)n3ccsc3n2)s1
2%	x	0.3	x	x	0.4	i	COc1cc(NC(C)=O)c2ncccc2c1Br
-2%	0.68	-3.1	-2.1	2.4	4.5	i	OCC1(Cc2ccccc2)CCN(Cc2cccc(F)c2F)CC1
-2%	0.66	1.9	2.2	3.4	x	x	CC1CN(C(=O)N(C)C)CCN1C(=O)N(C)C (stereo not drawn)
-2%	0.71	-3.9	1.8	0.5	0.3	i	Cc1ccc(OCC(=O)N2CCc3ccccc32)cc1
-2%	0.7	3.1	u	0.6	x	x	Cn1c(SCC(=O)NC2CC2)nnc1C(F)(F)F
2%	0.65	-1.6	x	-0.1	x	x	CCCC(=O)Nc1nnc(COC)s1
-4%	0.7	-5.5	8.8	5.0	1.1	i	CCOP(=O)(OCC)C(Nc1ccccc1)c1cccnc1 (stereo not drawn)
x	0.72	-2.7	x	1.6	-0.7	i	CN(CC(=O)Nc1c(Cl)cccc1Cl)C(=O)CNC(=O)c1sc2ccccc2c1Cl
8%	0.71	1.7	-3.0	-2.1	x	x	CC(=O)Nc1ccc(S(=O)(=O)NCCSc2ccccn2)cc1
-7%	x	-1.7	11	x	0.8	i	CCC1(c2ccccc2)NC(=O)N(CC(=O)NCc2ccncc2)C1=O (stereo not drawn)
-1%	0.65	-0.7	6.3	0.5	x	x	O=C(NCCc1nc2ccccc2[nH]1)c1cc([N+](=O)[O-])cc([N+](=O)[O-])c1
4%	0.75	3.8	u	7.3	x	x	O=c1[nH]c(CSc2nc3ccccc3o2)nc2c1cnn2-c1ccccc1
-9%	0.67	-2.4	0.2	4.3	x	x	COc1ccc(CCn2nnnc2C(c2ccccc2)N2CCN(C)CC2)cc1OC (stereo not drawn)
x	x	2.0	x	x	-2.5	i	O=C(NCc1ccc(F)cc1)c1cc(C2CCCCN2C(=O)CCCc2ccccc2)on1 (stereo not drawn)
1.5µM*	0.68	-15	-0.8	11	x	x	CSc1nnc(-c2ccco2)c(-c2ccco2)n1
3%	0.66	0.1	9.6	0.7	-2.1	i	O=C(c1ccc(COc2ccc(Cl)cc2)cc1)N1CCCCC1
0%	0.72	6.3	1.5	4.5	-12	i	CCOC(=O)Cn1c(=O)oc2cc(S(=O)(=O)NCCC(C)C)ccc21
x	x	-1.1	x	x	-5.5	i	CC(C)N1C(=O)NC2NC(=O)N(C(C)C)C21 (stereo not drawn)
2%	0.69	6.2	7.6	1.3	3.4	i	CCc1ccc(C(=O)C(C)OC(=O)c2cccc(S(=O)(=O)N3CCOCC3)c2)cc1 (stereo not drawn)
-10%	x	-0.1	x	x	-8.5	i	CCc1noc(C)c1C(=O)N(CC)CC(=O)NCc1ccc(F)cc1

# Structures above with an aryl methoxy group, in the order listed:
Vif A3G	E coli growth	HNF4A DNA FP	RanGTP-Impb inh	UCH37 DUB inh	MLL AF4-AF9 inh	FGF22 binding	Compound
-4%	0.7	1.7	-0.3	1.4	x	x	COc1ccc(C(=O)NN2CCCCC2)cc1OC
2%	x	0.3	x	x	0.4	i	COc1cc(NC(C)=O)c2ncccc2c1Br
-9%	0.67	-2.4	0.2	4.3	x	x	COc1ccc(CCn2nnnc2C(c2ccccc2)N2CCN(C)CC2)cc1OC (stereo not drawn)

# Next part
Vif A3G	E coli growth	HNF4A DNA FP	RanGTP-Impb inh	UCH37 DUB inh	MLL AF4-AF9 inh	FGF22 binding	Compound
x	0.71	-1.2	1.9	-41	x	x	CCC1=CC(c2ccccc2)n2ncnc2N1 (stereo not drawn)
u	x	-2.4	3.1	x	3.9	i	C=CCOc1c(Br)cc(/C=N/Nc2ccc(C(=O)O)cc2)cc1OCC
x	0.68	1.7	x	-1.0	-1.6	i	O=S(=O)(c1ccc(F)cc1)N1CCCC(c2nc(-c3ccc(F)cc3)no2)C1 (stereo not drawn)
x	x	-0.3	13	0.8	5.3	i	C[C@@H](CN1C(=O)C(=O)NC[C@@H]1Cc1ccc(O)cc1)NC(=O)Cc1ccccc1
-7%	0.66	4.8	0.7	3.6	-3.1	i	CCc1ccc(N2C(=O)C3C(C2=O)N2CCCN2C3c2ccccc2)cc1 (stereo not drawn)
29%	0.66	5.3	x	4.5	-1.6	i	COc1ccc(S(N)(=O)=O)cc1C(=O)OCCCC(=O)c1ccccc1
18%	0.74	2.7	9.5	-0.3	x	x	Cc1noc(C)c1COC(=O)c1cccc(S(=O)(=O)N2c3ccccc3CC2C)c1 (stereo not drawn)
-8%	0.7	-1.9	-0.7	8.6	0.2	i	CCCC(=O)C1=C(N2CCCCC2)CC(C)(C)C(C(=O)OC)C1=O (stereo not drawn)
-2%	x	5.8	2.1	x	-0.6	i	N/C(=N\O)c1ccccc1N1CCCCC1
10%	x	2.2	4.9	x	4.2	i	CC1CCC/C(=N/NC(=O)c2ccccc2-n2cccc2)C1 (stereo not drawn)
x	0.65	-3.0	0.4	3.5	1.0	i	O=C(CCc1ccccc1)N=C1SC2CS(=O)(=O)CC2N1c1ccc(F)cc1 (stereo not drawn)
x	0.66	0.2	-1.6	4.1	-4.4	i	O=C(NC(=S)N1CCc2ccccc21)c1ccccc1Cl
x	0.72	1.4	u	1.3	0.7	i	COc1ccc(N(CC(=O)Nc2cccc(C)c2)S(=O)(=O)c2ccc(C)cc2)cc1OC
4%	0.69	-2.4	0.6	3.4	x	x	COc1cccc(CNC(=O)C2CCN(Cc3cnn(-c4ccccc4)c3-n3cccc3)CC2)c1
x	0.64	-1.8	2.3	1.5	4.7	i	CCOc1ccc(-c2cnc(NCc3cccc4ccccc34)n2CCOC)cc1
-1%	x	0.9	x	x	2.4	i	Cc1cc(C(=O)N2CCc3ccccc32)ccc1[N+](=O)[O-]
16%	0.72	-0.2	x	3.8	x	x	O=C(NCc1cccnc1)c1cn(CCc2ccccc2)nn1
x	0.72	1.1	-0.3	1.4	1.2	i	COc1cccc(N2CCN(C(=S)Nc3cc(C)cc(C)c3)CC2)c1
x	0.73	-1.7	1.6	6.2	x	x	CC(CN1CCOCC1)OC(=O)C(c1ccccc1)c1ccccc1 (stereo not drawn)
4%	x	2.6	x	x	0.6	i	CC[C@H](C)[C@H]1CNC(=S)N1CC1CCN(CCC(C)(C)C)CC1
14%	x	-0.1	3.7	x	x	x	C/C(=N\NC(=O)Cc1cccn1C)c1cccc2ccccc12
2%	0.69	-4.6	1.2	3.4	x	x	CSC1=C(C#N)C(c2ccc(C)s2)CC(=O)N1 (stereo not drawn)
1%	0.68	5.1	0.2	2.0	-0.4	i	N#Cc1cnc2nc(SCc3ccccc3)nn2c1
5%	0.71	1.8	1.0	1.0	-2.1	i	CN(Cc1cccc(F)c1)C(=O)Cc1ccc(S(=O)(=O)N2CCOCC2)s1
3%	0.71	0.7	0.2	3.6	x	x	Cn1ncc([N+](=O)[O-])c1C(=O)Nc1ccc2c(c1)OCCO2
x	0.67	4.8	0.8	8.2	-2.5	i	CCN(CC(=O)Nc1ccc(NC(C)=O)cc1)C(=O)/C=C/c1cccs1
4%	0.68	-0.9	8.5	1.0	-2.2	i	CCOc1ccccc1NC(=O)C(Sc1nnnn1C)c1ccccc1 (stereo not drawn)
x	0.69	0.7	0.7	1.7	-15	i	NC(=O)NC(=O)CN1C(=O)NC(c2ccccc2)(c2ccccc2)C1=O
x	0.73	-0.8	x	-1.8	4.2&4.3	i	C[C@H](CO)N1C[C@H](C)[C@@H](CN(C)Cc2ccc(Cl)c(Cl)c2)Oc2c(NS(=O)(=O)c3cccs3)cccc2C1=O
x	0.69	-1.3	1.1	3.9	1.6	i	COc1cc(/C=C2\CCC(C3CCCC3)C2=O)cc(OC)c1OC (stereo not drawn)
x	x	-0.5	x	x	14	i	NC(Cc1ccc(Cl)cc1)c1csc(NC(=O)NCCc2ccccc2)n1 (stereo not drawn)
x	x	-0.9	x	2.7	3.6	i	O=C1N[C@@H](Cc2ccccc2)COC(=O)[C@@H](Cc2ccc(F)cc2)C/C=C\C[C@@H]1CC(=O)N(CCO)Cc1ccccc1
10%	0.78	-0.6	10.0	5.8	-1.5	i	CCCCNC(=O)c1onc(CSc2cccc(OC)c2)c1C(=O)O
x	0.68	1.9	3.1	-1.2	-4.2	i	CC(=O)NCC1CCCN(C(=O)c2ccc(OC3CCN(Cc4ccccn4)CC3)cc2)C1 (stereo not drawn)
7%	0.63	-3.2	x	1.0	u	i	Cc1cc(C(=O)COC(=O)Cc2ccc(Cl)cc2)c(C)n1C
-7%	0.66	0.4	3.6	3.0	x	x	Cc1nonc1NC(=O)CSc1nc(C2CCCCC2)nc2ccccc12
-3%	0.63	3.6	4.2	-3.2	27*	i	CCCCCc1cc(=O)oc2c(C(CCN3CCCCC3)c3ccc4c(c3)OCO4)c(OC)cc(OC)c12 (stereo not drawn)
-6%	0.72	0.8	0.9	-71	x	x	Cc1c(C(=O)Nc2cccc3cccnc23)oc2ccccc12
19%	0.75	5.2	1.2	-1.9	x	x	CCn1cc2c(c1-c1cccc(C)c1)c(=O)n(C)c(=O)n2C
13%	0.72	2.4	-7.1	1.6	-7.5	i	CC1CSc2n(-c3cccc(C(F)(F)F)c3)cc(-c3ccccc3)[n+]21 (stereo not drawn)
x	0.71	4.3	-2.3	0.5	-28	i	Cc1nn(CC(=O)NCCCN2CC(C)CC(C)C2)c(=O)c2cccn12 (stereo not drawn)
-10%	0.69	3.5	x	8.8	-2.0&-3.7	i	C[C@H](CO)N1C[C@H](C)[C@@H](CN(C)C(=O)NC2CCCCC2)Oc2ccc(NS(=O)(=O)c3cccs3)cc2C1=O
x	0.65	5.3	-0.6	2.1	0.8	i	CCOC(=O)N1CCN(CC(c2ccccc2)c2ccccc2)CC1
-6%&-8%	0.72	-1.4	1.4	-1.2	x	x	CCOC(=O)N1CCN(C(=O)CS(=O)(=O)c2cn(Cc3cccc(F)c3)c3ccccc23)CC1
x	0.77	2.5	2.0	-13	1.0	i	O=C(COc1ccc2c3c(c(=O)oc2c1)CCCC3)N1C[C@H]2C[C@@H](C1)c1cccc(=O)n1C2
x	0.63	4.9	6.0	2.7	-2.4	i	Cc1ccc(OCc2nc3ccccc3[nH]2)cc1
0%	0.69	1.7	2.8	0.4	-12	i	COc1ccc(S(=O)(=O)NCC(c2ccc3c(c2)OCO3)N2CCN(C)CC2)cc1OC (stereo not drawn)
-2%	0.65	-1.7	u	-1.8	6.7	x	O=C(NC(=O)N1CCN(C(c2ccccc2)c2ccccc2)CC1)c1ccccc1
x	x	-1.1	x	x	-3.6	i	CC(C)CNC(=O)c1cccc2c(-c3ccc(F)c(F)c3)coc12

# Structures listed so far with a COOH group, in the order listed:
Vif A3G	E coli growth	HNF4A DNA FP	RanGTP-Impb inh	UCH37 DUB inh	MLL AF4-AF9 inh	FGF22 binding	Compound
u	x	-2.4	3.1	x	3.9	i	C=CCOc1c(Br)cc(/C=N/Nc2ccc(C(=O)O)cc2)cc1OCC
10%	0.78	-0.6	10.0	5.8	-1.5	i	CCCCNC(=O)c1onc(CSc2cccc(OC)c2)c1C(=O)O
